Screens: PubChem BioAssay, National Center for Advancing Translational Sciences (NCATS)
HPGD inh: inhibitors of human 15-hydroxyprostaglandin dehydrogenase (HPGD); purified HPGD, NADH fluorescence kinetic, PGE2 substrate; hit rate 4.3% among 150,000; Potency, µM, without a hit: at the top dose activity change, negative = inhibition, hits mostly inhibitors; P15428; active = well fitted inhibition curve with a large enough effect (not every such curve was filed as active); inconclusive = small, poorly fitted or top-dose-only effect, or another doubt; inactive = no such curve, though single readings can be large or run the other way;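 also: top concentration of the series not given in the record; plate controls included wells without enzyme; inactives centre near -10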
Target sequence (P15428 whole entry, looked up): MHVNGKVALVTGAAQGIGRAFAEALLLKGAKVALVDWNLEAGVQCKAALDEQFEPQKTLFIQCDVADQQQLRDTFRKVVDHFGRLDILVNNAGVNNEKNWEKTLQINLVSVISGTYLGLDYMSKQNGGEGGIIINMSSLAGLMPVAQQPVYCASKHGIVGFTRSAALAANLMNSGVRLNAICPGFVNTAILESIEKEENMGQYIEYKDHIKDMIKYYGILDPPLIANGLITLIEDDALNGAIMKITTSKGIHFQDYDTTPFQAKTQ
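20 nM HPGD preincubated 15 min at room temperature with compound in 50 mM Tris-HCl pH 8, 0.01% Tween 20. Started with 1 mM NAD+ and 30 uM prostaglandin E2; NADH fluorescence (360/450 nm) read 5 times over 30-s intervals, last minus first.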
Active calls of the source: *; u = inconclusive; & = joins results of further samples. % is scaled to controls: 0 for no effect and ±100 for the full control effect; potency is read from the fitted curve at half-maximal effect. These rows are one share of the data; count on the stated rates, not on these rows.

compound	HPGD inh
O=C(NCC1OCCc2ccccc21)c1ccc(NC(=O)c2ccc(Cl)cc2Cl)cc1 (stereo unspecified)	-20.9%
O=C1C=C(Nc2ccc(Cl)cc2)CC(c2ccco2)C1 (stereo unspecified)	-18.7%
COc1ccc(C=O)cc1CSc1nnc(COc2cccc3cccnc23)o1	u
CC(C)COc1ccc(/C(=N/O)c2ccccc2)cc1	u
Cc1cc(C(=O)COC(=O)C2=NNC(=O)CC2)c(C)n1-c1cccc(C(F)(F)F)c1	-16.6%
Cc1cc(Nc2ccccc2)nc(N2CCOCC2)n1	-7.5%
COc1ccc(Nc2cc(C(=O)NCCCN3CCN(C)CC3)c3ccccc3n2)cc1	-5.0%
c1ccc2[nH]c(CSc3nccs3)nc2c1	-23.3%
c1ccc(COn2nnc3ccccc32)c(COn2nnc3ccccc32)c1	-22.6%
Cc1cccc(Nc2nc(N)nc(CN3CCC(C(N)=O)CC3)n2)c1C	4.8%
Cc1cnc(NC(=O)CSc2nnc(-c3ccccc3)o2)s1	3.2%
Cc1ccc(S(=O)(=O)N2Cc3ccccc3CC2C(=O)Nn2cnnc2)cc1 (stereo unspecified)	-5.0%
N#CC1(c2ccccc2)CCCN1C(=O)c1ccc(Br)cc1 (stereo unspecified)	-13.2%
Nc1nc(Nc2ccccc2)nc(N2CCOCC2)c1[N+](=O)[O-]	-6.9%
COc1ccc(-c2cc(C)nc3nc(N)nn23)cc1	u
O=C(NC1CC2CCC1C2)c1ccc(CN2CCOCC2)cc1 (stereo unspecified)	-20.6%
CC1=C(C(=O)OC(C)C)C(c2ccc(Br)s2)NC(=O)N1 (stereo unspecified)	-13.7%
COc1ccccc1-c1nnc(SCC(=O)Nc2c(Cl)cccc2Cl)o1	-3.8%
COc1cccc(C(c2nnnn2CCc2ccccc2)N2CCN(c3ccccc3)CC2)c1OC (stereo unspecified)	-4.2%
C=C(C)CNC(=S)NNC(=O)c1ccco1	2.2%
Cc1cccc(OCC(=O)Nc2ccc3c(c2)OCO3)c1C	-24.5%
CC(=C/c1ccco1)/C=N/N1CCN(c2ccccc2)CC1	-7.9%
CCN(CC)CCNC(=O)C1c2cc(OC)c(OC)cc2C(=O)N2CCc3ccccc3C12 (stereo unspecified)	-11.1%
COC(=O)c1cc(NS(=O)(=O)c2ccc(NCc3cccnc3)c(N)c2)cc(C(=O)OC)c1	-8.2%
COc1ccc2cc3cc(C(=O)Nc4ccccc4N4CCN(C)CC4)oc3nc2c1	-7.6%
O=C(NC1CCCC1)C1CCN(c2nccs2)CC1	14.1µM*
CCOC(=O)c1cc(NC(=O)NCc2ccco2)c(C)nc1C	-7.8%
CC1CCN(C(=O)CN(c2ccc(Oc3ccccc3)cc2)S(C)(=O)=O)CC1	-7.5%
Cc1ccc(S(=O)(=O)C2(C(=O)N3CCCCCC3)CC2)cc1	12.6µM*
NS(=O)(=O)c1ccc(CCNC(=O)c2cccnc2)cc1	-12.5%
O=C(c1ccc(S(=O)(=O)c2ccccc2)cc1)N1CCc2ccccc2C1	17.8µM*
COC(=O)c1ccc(Cl)c(NC(=O)CSc2ncn[nH]2)c1	-13.1%
CC(C)C[C@@H](CC(=O)N[C@H](CC(=O)N[C@@H]1CCCC[C@H]1C(=O)N[C@H](CC(=O)N[C@@H](CCC(=O)O)CC(=O)O)CC(C)C)C(C)C)NC(=O)[C@@H]1CNCC[C@H]1N	-2.9%
CCOc1ccc(-c2nnn(CC#N)n2)cc1OC	-18.1%
Cc1nc2nc(-c3ccc(Cl)cc3)cn2nc1C	u
O=S(=O)(Cc1ccccc1)NCc1ccccn1	-8.2%
Cc1ccc2cc(C)c3nnc(SCC(=O)N4CCCc5ccccc54)n3c2c1C	-17.8%
COc1ccc(C(=O)NC(=S)N2CCCCC2)cc1[N+](=O)[O-]	-16.3%
O=[N+]([O-])c1cc2c(cc1/C=N/n1c(-c3ccccc3)n[nH]c1=S)OCO2	3.16µM*
O=C(Nc1ccccc1N1CCOCC1)c1cccs1	-11.7%
CC(C)C[C@@H]1NC(=O)[C@H](Cc2ccc(O)cc2)NC(=O)c2cc([N+](=O)[O-])cc(I)c2NCCC[C@@H](C(N)=O)NC1=O	-13.1%
COC(=O)C1=C(C(=O)c2ccccc2)C(c2ccc(O)c(OC)c2)n2nnnc2N1 (stereo unspecified)	-4.8%
NNC(=O)c1cnn(Cc2ccccc2)c1N	-8.8%
COC(=O)[C@@]1(Cc2ccc(OC)cc2)[C@H]2c3cc(C(=O)N4CCCC4)n(CCc4ccc(OC)c(Br)c4)c3C[C@H]2CN1C(=O)c1ccccc1	-8.3%
CCOC(=O)c1oc2c(CN3CCN(C)CC3)c(O)ccc2c(=O)c1-c1ccc(Br)cc1	-9.7%
O=C(CN1CC(c2ccccc2)CC1=O)Nc1ccc2c(c1)OCO2 (stereo unspecified)	-2.1%
CCCOC(=O)c1[nH]c2c(c1C)C(=O)CC(c1cccs1)C2 (stereo unspecified)	1.3%
Cc1ccc(C(=O)NCC(=O)OCC(=O)c2ccc3c(c2)OCCO3)cc1C	-15.7%
Cc1c(Cl)c([N+](=O)[O-])nn1Cc1ccc(C(=O)N/N=C\c2cc(Cl)ccc2O)o1	-20.8%
Cc1cccc2sc(NNC(=O)c3ccc(S(=O)(=O)N4CC(C)CC(C)C4)cc3)nc12 (stereo unspecified)	-7.7%
C=CCSC1=Nc2sccc2C2=NC(=O)CN12	-9.2%
CC(C)CCn1c(Oc2ccc(Cl)cc2)nc2c1c(=O)n(C)c(=O)n2C	-7.7%
O=c1[nH]c(CN2CCN(Cc3ccc4c(c3)OCO4)CC2)nc2ccccc12	-24.1%
CCn1nnnc1SCC(=O)NC1CCCC1	-15.2%
C/C(=N\NC(=O)CN1CCOCC1)C(C)(C)C	-7.4%
Cn1c(=O)c(C(=O)CN2CCN(S(=O)(=O)c3ccccc3)CC2)c(N)n(Cc2ccccc2)c1=O	-2.1%
Cc1ccc(OCC(=O)Nn2cnc3ccccc32)cc1	-1.9%
Cc1ccc(-c2cc(C(=O)Nc3cc(C)ccc3C)[nH]n2)c(O)c1	-12.7%
O=C(/C=C\c1ccccc1)Nc1nccs1	-23.4%
CC(C)OP(=O)(OC(C)C)C(Nc1ccccc1)c1ccc2c(c1)OCO2 (stereo unspecified)	-12.7%

Remaining list, next part
compound	HPGD inh
CCc1cccc(C)c1NC(=O)c1cc(C)oc1C	-8.2%
CCCCNC(=O)c1sc(=S)n2c1[nH]c(=O)c1ccccc12	-21.4%
Cc1cc(NC(=O)c2cc3ccccc3o2)cc(C)c1OCC(=O)N1CCOCC1	-24.7%
Cc1ccc2nc(-c3ccccc3)cc(C(=O)N3CCc4ccccc4C3)c2c1	-18.6%
O=C(CSc1ccc(-c2ccco2)nn1)NCc1ccc(F)cc1	-14.2%
COc1cccc(C(=O)NC2=NCCS2)c1OC	-6.1%
COC(=O)C1CC1C(NC(=O)[C@@H]1CCCN1)c1ccccc1 (stereo partly specified)	-0.5%
CCc1ccc(/C=C/c2c[nH]c3ccccc23)[n+](CC)c1	-8.9%
O=S(=O)(NCCCCCNS(=O)(=O)c1ccccc1)c1ccccc1	-11.1%
O=C(NCC(F)(F)F)Nc1nnc(C(F)(F)F)s1	-7.7%
Cc1cccc(C)c1NC(=S)/C(=C(\[O-])c1cccs1)[n+]1ccccc1	-17.1%
O=C(c1ccc(Cl)cc1Cl)C1(n2cncn2)Oc2ccccc2C1O (stereo unspecified)	-12.2%

A draw from above in order of SMILES length, smallest number first.
compound	HPGD inh
O=C(NCC(F)(F)F)Nc1nnc(C(F)(F)F)s1	-7.7%
O=C(CSc1ccc(-c2ccco2)nn1)NCc1ccc(F)cc1	-14.2%
CCc1ccc(/C=C/c2c[nH]c3ccccc23)[n+](CC)c1	-8.9%
O=S(=O)(NCCCCCNS(=O)(=O)c1ccccc1)c1ccccc1	-11.1%
Cc1cc(NC(=O)c2cc3ccccc3o2)cc(C)c1OCC(=O)N1CCOCC1	-24.7%
Cc1cccc(C)c1NC(=S)/C(=C(\[O-])c1cccs1)[n+]1ccccc1	-17.1%

More compounds follow:
compound	HPGD inh
Cc1ccc(S(=O)(=O)N(CCC(=O)O)Cc2ccc(Cl)cc2)cc1	-6.3%
Cc1ccc(C(=O)NNC(=O)CCC(=O)Nc2cc(C)on2)cc1	-2.2%
COC(=O)c1ccc(CSc2nc(-c3ccccc3)cs2)o1	-28.2%
O=S1(=O)CCC(N2CCOCC2)C1 (stereo unspecified)	-0.4%
O=c1c2ccccc2nnn1CSc1nnc2sc3ccccc3n12	-24.6%
COc1ccc(OC)c(S(=O)(=O)N(C)CC(=O)N2CCN(c3ccc(F)cc3)CC2)c1	-14.2%
CCC(c1ccccc1)c1nc(-c2ccccn2)no1 (stereo unspecified)	-5.7%
Cc1nnc(SCc2ccc(F)cc2)s1	-10.2%
NC(=O)N/N=C/c1ccc([N+](=O)[O-])o1	-23.4%&-6.2%
CCN(C(=O)CSc1nc2nc(C)cc(C)n2n1)c1cccc(C)c1	25.1µM*
CCn1c(SCC(=O)N2CCCc3ccccc32)nnc1-c1ccco1	-11.2%
Cc1ccccc1CS(=O)(=O)Cc1ccc(C(=O)NCc2ccccn2)o1	3.4%
Cn1c(Sc2ccc(Br)cc2)c(C=O)c2ccccc21	-6.6%
Cc1cc(/C=C2/NC(=O)N(Cc3ccccc3F)C2=O)c(C)n1-c1ccccn1	u
Clc1ccc(-c2nc(N3CCCCC3)nc3ccccc23)cc1	-18.3%
O=C(COC(=O)/C=C/c1ccc(F)cc1)Nc1ccccc1-c1ccccc1	-12.4%
O=c1[nH]c2cc3c(cc2cc1CN(Cc1ccccc1)Cc1nnnn1Cc1ccco1)OCCO3	u
O=C1C=C(NCc2ccccc2)CCC1	1.3%
CCC(C(=O)Nc1ncccn1)(C(F)(F)F)C(F)(F)F	-5.4%
CC(=O)N(C)C1(c2nnnn2CCOC(=O)Nc2ccc(Cl)cc2)CCCCC1	-5.9%
COc1ccccc1/C=C/C1(C(=O)NC2CCCC2)CC(=O)N1c1ccc(F)cc1 (stereo unspecified)	-11.7%
CN1C(=O)CSC1=NCC12CC3CC(CC(C3)C1)C2	-2.2%
COc1ccccc1CN1C(=S)SC(C)(C)C1NO (stereo unspecified)	-3.1%
Cc1cccc(NC(=O)/C(=C\c2ccco2)NC(=O)c2ccccc2)c1	-9.2%
C/C(=N\O)C(=O)NCc1ccncc1	-2.7%
N#Cc1nc(COc2ccc(Cl)cc2)oc1N1CCCC1	-19.4%
CCCn1c(SCC(=O)N2CCCCC2)nnc1-c1ccco1	-25.1%
COC(=O)[C@H]1O[C@@H](c2cc(OC)c(C)c(OC)c2OCc2ccccc2)[C@H](C)[C@H]2O[C@@]12C	-2.7%&-5.8%
CN(CC1COc2ccccc2O1)C(=S)Nc1ccccc1F (stereo unspecified)	u
Brc1ccc(-c2cn3nc4c(nc3n2)CCCC4)cc1	u
O=c1c2cnn(-c3ccccc3)c2nc(-c2ccco2)n1-c1ccccc1	u
C=COCCn1c(-c2nonc2N)nc2ccccc21	-12.2%
COc1cc(C2C(C#N)=C(N)OC3=C2C(=O)CC(C)(C)C3)c([N+](=O)[O-])cc1OC (stereo unspecified)	-16.5%
Cc1ccc(N2CCN(C(=O)CNS(=O)(=O)c3ccc(Br)s3)CC2C)cc1 (stereo unspecified)	-8.8%
CCCCc1ccc(C2C(C#N)=C(N)SC(N)=C2C#N)s1	14.1µM*
CCSc1nnc(NC(=O)CSc2nc3c(c(=O)n2-c2ccccc2)SCC3)s1	-17.0%
CC1(C)Cc2ccccc2-c2nnc(-c3ccccc3)n21	-1.6%
O=C(Oc1ccccc1C(=O)N1CCOCC1)c1ccc(Br)cc1	-9.5%
COc1ccc(OC)c2[nH]c(=O)c(CCNC(=O)c3ccc(S(=O)(=O)N(C)C)cc3)cc12	-5.4%
O=C(Nc1cc(N2CCOCC2)ncn1)NC1(C(F)(F)F)Oc2ccccc2O1	-2.8%
c1ccc(-n2c(Cc3cn4ccsc4n3)nnc2N2CCOCC2)cc1	-7.4%
Cc1ccc(C=Nc2ccccc2C(N)=O)cc1	u
Cc1ccc(S(=O)(=O)NCCC(=O)Nc2cccc(Cl)c2)cc1	-7.7%
CN(c1ccccc1)S(=O)(=O)c1ccc(C(=O)Nc2nnc(-c3ccc(F)cc3)o2)cc1	-4.2%
O=C(Cc1c(O)c2ccccc2[nH]c1=O)NC1CCCCCC1	u
CC1CCCCN1C(=O)c1cc(-c2ccc(Cl)c(Cl)c2)on1 (stereo unspecified)	4.47µM*
CC(=O)Nc1ccc(S(=O)(=O)Nc2ccc([N+](=O)[O-])cc2)cc1	22.4µM*
CCOc1nonc1C(=N)/C(C(C)=O)=C(\C)O	-12.3%
CCOc1ccc(NC(=O)[C@@H](NC(=O)OCc2ccccc2)[C@@H](C)CC)cc1	-7.2%
COc1ccc(NC(C)=O)cc1NC(=O)CCn1c(=O)sc2ccccc21	-2.2%
C=CCc1cc(Cl)ccc1OCCOCCNCCOC	4.2%
